HIV Env fusion – HIV envelope-mediated fusion inhibition. HeLa-JRFL Env/CEM21 cell fusion, luciferase. inhibition, % at 12.3 µM. 360,000 compounds, 1.1% hits. AID 651610;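 active means mean replicate inhibition score of at least 50 and every replicate individually at or above 50; inconclusive means only one of the two criteria met; inactive means mean below 50 and not all replicates reaching 50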;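 further: 0% = plate neutral controls and 100% = maraviroc near 300 nM; one replicate is shown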
CSC inhib – cancer stem cell inhibition | cancer stem cell-like cells viability, luminescence | inhibition, % at 7.5 µM | 300,000 compounds, 1.1% hits;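 active means mean at 75% or more and at least half the replicates too; inconclusive means mean and replicates disagree; tested in HMLE shEcad cells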;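 further: 0% = median of negative and 100% = median of positive control wells; the first replicate is given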
eIF4H inh – inhibitors of RNA binding by human eIF4H. eIF4H fluorescence polarization binding assay. Q15056. 290,000 compounds, 0.94% hits. inhibition, % at 35 µM;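 active means 50% or more with normal probe brightness, or confirmed in later tests; inconclusive means above 50% with abnormal brightness, or retests that disagree; inactive means below 50% or failed in later tests; about a fifth of its hits are not listed in these tables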;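 further: calls also rest on retests at 20 µM and on dose response follow-up; 0% = protein and probe with vehicle and 100% = probe without protein; strong numbers were not always called active; many hits fall short of the cut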
MT1-MMP act inh – MT1-MMP (human) activation inhibition | P50281 | HT1080 RFP-PRO-GFP cells, GFP/RFP ratio fluorescence, overnight; percent of plate control window, DMSO zero | GFP/RFP ratio change, % at 20 µM | 360,000 compounds, 0.061% hits;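 active means GFP/RFP ratio change of at least 30% with cell ATP level not reduced by more than half and red fluorescence within 50% of control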; further: strong numbers were not always called active
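system = RFP-PRO-GFP reporter HT1080 cells | dosing = 20 µM single dose, 1% DMSO | timing = overnight cell settling, then overnight compound exposure, 37 °C, 5% CO2 | read-out basis = GFP/RFP fluorescence ratio | controls = DMSO and RFP-L50D-GFP cell wells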
PABP polyA inh – blocks human PABP binding to poly(A) RNA; fluorescence polarization; P11940; 290,000 compounds, 1% hits; AID 2014; inhibition, % at 35 µM;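 active means 50% or more with normal probe brightness, or confirmed in later tests; inconclusive means above 50% with abnormal brightness, or retests that disagree; inactive means below 50% or failed in later tests; about a fifth of its hits are not listed in these tables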;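 further: calls also rest on retests at 20 µM and on dose response follow-up; controls were probe without protein and protein plus probe with vehicle; some compounds called inactive have numbers as strong as hits; many hits fall short of the cut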
Target sequence (P11940 whole entry, looked up): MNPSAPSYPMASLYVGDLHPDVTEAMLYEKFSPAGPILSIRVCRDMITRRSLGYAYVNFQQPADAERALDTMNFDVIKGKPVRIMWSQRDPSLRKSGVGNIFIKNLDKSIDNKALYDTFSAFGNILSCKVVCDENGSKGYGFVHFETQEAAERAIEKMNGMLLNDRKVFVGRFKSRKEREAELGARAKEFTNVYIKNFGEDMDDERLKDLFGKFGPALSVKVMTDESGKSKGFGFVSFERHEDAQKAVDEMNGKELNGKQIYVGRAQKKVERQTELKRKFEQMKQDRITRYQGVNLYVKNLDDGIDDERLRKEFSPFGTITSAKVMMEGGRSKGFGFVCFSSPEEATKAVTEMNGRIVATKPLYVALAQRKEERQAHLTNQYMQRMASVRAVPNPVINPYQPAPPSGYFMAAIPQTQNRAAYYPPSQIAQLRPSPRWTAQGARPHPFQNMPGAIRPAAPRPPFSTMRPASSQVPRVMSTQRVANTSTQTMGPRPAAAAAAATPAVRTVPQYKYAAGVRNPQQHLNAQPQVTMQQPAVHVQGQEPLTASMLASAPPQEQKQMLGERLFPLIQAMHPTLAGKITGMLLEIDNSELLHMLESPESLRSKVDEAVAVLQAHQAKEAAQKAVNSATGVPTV
Yeast UUG start – yeast start codon fidelity modulation; 350,000 compounds, 0.13% hits; S. cerevisiae UUG-firefly luciferase reporter, luminescence/redox ratio; AID 602363; activity score, % at 18.7 µM;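 active means replicate mean at a twofold rise or more, about +100% in these data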;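 further: firefly luciferase made from a UUG start codon reports start codon fidelity; reporter light over untreated wells divided by growth signal over untreated wells; some hits fall short of that in this replicate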
Rce1 inh – yeast Ras-converting enzyme inhibition. calls only. yeast membranes, quenched prenylated peptide cleavage fluorescence. Q03530. 290,000 compounds, 0.27% hits;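 active means fall in fluorescence gain of 50% or more versus controls, with final raw signal at or below 3038400; inconclusive means same 50% fall but final raw signal above 3038400; inactive means fall in fluorescence gain under 50%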;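 further: plate controls were neutral control wells for no effect and wells lacking membranes for full effect; tested at 10 µM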
Target sequence (Q03530 whole entry, looked up): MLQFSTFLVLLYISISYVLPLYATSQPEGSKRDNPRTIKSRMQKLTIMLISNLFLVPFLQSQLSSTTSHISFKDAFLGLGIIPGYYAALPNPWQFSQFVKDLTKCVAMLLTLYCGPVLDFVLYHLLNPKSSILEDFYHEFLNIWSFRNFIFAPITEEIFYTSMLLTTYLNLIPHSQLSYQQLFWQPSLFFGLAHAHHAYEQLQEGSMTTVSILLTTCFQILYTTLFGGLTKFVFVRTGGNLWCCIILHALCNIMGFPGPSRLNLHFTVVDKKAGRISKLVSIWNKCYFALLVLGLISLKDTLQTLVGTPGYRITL
eIF4H inh retest – recorded beside eIF4H inh, whose call it bears; inhibition, %; compound at 20 µM; confirmation average;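 mean of two retest wells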
PABP polyA inh retest – also measured in PABP polyA inh; calls as there; inhibition, %; compound at 20 µM; confirmation repeats;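 mean of two retest wells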
MT1-MMP act inh RFP – further read-out of MT1-MMP act inh, marked with its call; RFP signal change, %; measured here: RFP expression control read;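 0 = vehicle wells; hits needed this value within 50% of zero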
An asterisk follows results filed as active; i = inactive; ? = inconclusive; · = not tested or not shown.

SMILES	HIV Env fusion	CSC inhib	eIF4H inh	MT1-MMP act inh	MT1-MMP act inh RFP	PABP polyA inh	Yeast UUG start	Rce1 inh	others
CSc1nc2ccc(NC(=O)C3=NN(c4ccccc4)C(=O)CC3)cc2s1	-10	0	3	-1	2	6	·	i
O=C1CS/C(=N\N=C\c2ccccc2Cl)N1CC1CC1	-5	9	-10	-2	-1	10	·	i
Cc1ccc(CNC(=O)C2CCN(S(=O)(=O)N3CCC(C)CC3)CC2)cc1	11	·	·	0	-3	·	-7	·
CC(C)CC(N)c1csc(Nc2ccc(C(F)(F)F)cn2)n1 (stereo not drawn)	-20	·	·	0	6	·	-10	·
COc1ccccc1N1CCN(C(=O)CCCn2c(=O)[nH]c3ccsc3c2=O)CC1	4	-16	-6	2	5	-1	-25	i
Cc1c(S(=O)(=O)c2ccccn2)c(N)n(Cc2ccccc2)c1C	-4	12	66	5	21	18	-14	i	eIF4H inh retest=-1;PABP polyA inh retest=19
CCOC(=O)N1CCC(N(CCOC)C(=O)Nc2ccc(C)c(C)c2)CC1	-3	-7	-1	-5	0	8	15	i
COc1ccc(S(=O)(=O)N(CC(=O)N2CCOCC2)c2cc(Cl)ccc2OC)cc1OC	·	·	-1	6	-1	-3	-33	i
Cc1cc(C)n(C(=O)CCCC(=O)n2nc(C)cc2C)n1	·	-12	-5	4	7	3	17	i
COC(=O)c1ccc(NC(=O)CN2CCOCC2)cc1	-56	-20	-2	-2	1	-3	-16	i
CCOc1ccccc1N(CC(=O)NC1CCCCC1)C(=O)CCC(=O)Nc1nccs1	-4	-22	-2	-3	-1	6	-6	i
CCOc1ccc(NCc2cccn2-c2nnc(N3CCC(C(=O)NCCCN4CCCCC4C)CC3)s2)cc1 (stereo not drawn)	-7	7	-4	-3	-6	7	-13	i
CCNC(=O)C1CCCN(Cc2cc(C(F)(F)F)ccc2Cl)CC1 (stereo not drawn)	-2	·	·	1	2	·	-17	·
O=S(=O)(c1ccc(Cl)cc1)N1CCN(c2ncccn2)CC1	-4	-16	0	-2	-4	-3	·	i
O=C(CCC(=O)OCC(=O)c1cccc([N+](=O)[O-])c1)Nc1cccc(Cl)c1Cl	3	-2	-2	1	7	-3	-18	i
COC(=O)CSc1nc(NCC(C)C)nc(N2CCOCC2)n1	·	-7	1	3	3	-2	-1	i
Cc1ccc(-c2csc(N(CCCN3CCOCC3)C(=O)c3ccco3)n2)cc1	41	·	-5	6	-3	10	-1	·
CC(=O)N1CCN(CC(C)(C)NS(=O)(=O)c2ccc(C)cc2)CC1	-8	31	-9	-1	-2	3	3	i
COc1ccc(OC)c(NC(=O)Nc2nc(C(N)CCc3ccccc3)cs2)c1 (stereo not drawn)	-43	·	·	-6	-9	·	3	·
CC(=O)Nc1cccc(-c2cn3ccccc3n2)c1	0	·	-7	5	-8	-14	·	i

By substructure, those above with a CF3 group.
SMILES	HIV Env fusion	CSC inhib	eIF4H inh	MT1-MMP act inh	MT1-MMP act inh RFP	PABP polyA inh	Yeast UUG start	Rce1 inh	others
CC(C)CC(N)c1csc(Nc2ccc(C(F)(F)F)cn2)n1 (stereo not drawn)	-20	·	·	0	6	·	-10	·
CCNC(=O)C1CCCN(Cc2cc(C(F)(F)F)ccc2Cl)CC1 (stereo not drawn)	-2	·	·	1	2	·	-17	·

Later entries:
SMILES	HIV Env fusion	CSC inhib	eIF4H inh	MT1-MMP act inh	MT1-MMP act inh RFP	PABP polyA inh	Yeast UUG start	Rce1 inh	others
COC(=O)CCCC1=CC2=CC(=O)C(C)(OC(=O)c3cccs3)C(=O)C2=CN1C1CCCCC1 (stereo not drawn)	-2	5	18	4	8	11	-12	i
CCCn1c(Nc2nc3ccccc3n2C)nc2ccccc21	140*	104*	19	2	-25	-5	-54	i
CCN(CC(=O)N1CCCC1)S(=O)(=O)c1cc(C)ccc1OC	7	-23	3	0	-1	2	-10	·
Cc1cc(O)ccc1N1C(=O)c2cccc3cc([N+](=O)[O-])cc(c23)C1=O	22	-5	8	-52	0	-16	-2	i
COc1ccc(CCn2c(C3CCCCC3)nc3c(c(=O)c4ccccc4n3C)c2=O)cc1	32	?	-1	-5	-23	-10	6	i
CC(C)(C)NC(=O)NC(=O)CSc1nncs1	17	3	2	0	2	-15	·	i
Clc1ccc(-n2nnc(-c3ncc[nH]3)n2)cc1Cl	-74	-6	·	3	4	·	-1	i
COc1ccc(C(=O)NCc2ccco2)cc1S(=O)(=O)N1CCOCC1	5	-7	-8	3	5	2	8	i
O=C(CSCc1ccccc1Br)NNC(=S)NCc1ccco1	-7	-1	16	1	-3	9	-24	i
Cc1ccsc1/C=N/NC(=O)CSCc1ccc(Cl)cc1	·	-20	-14	0	2	4	-7	i
COc1ccc(-c2csc(-n3ncc(-c4cccs4)c3N)n2)cc1	-73	0	1	-8	-3	-1	-22	i
CC(=O)c1sc(NC(=O)C2CCCN2S(=O)(=O)c2ccccc2F)nc1C (stereo not drawn)	-4	·	·	-2	-5	·	-35	·
O=C(CN1CCOCC1)Nc1ccc(NC(=O)c2ccccc2F)cc1	5	-5	-4	1	0	2	-14	i
O=C(CSc1nnc(-c2ccncc2)o1)Nc1ccccc1C(F)(F)F	-20	11	7	-1	4	-2	-3	i
COc1cc2ccccc2cc1C(=O)NC(=S)Nc1cc(C(=O)O)ccc1C	14	·	3	-1	-5	1	-4	i
Cn1nnnc1SCCNCc1ccncc1	34	-9	-5	-2	3	0	-20	i
O=C(O)CCCC(=O)Nc1ccccc1C(=O)N1CCCC1	·	9	6	-2	1	2	-21	i
Cc1[nH]nc(-c2ccc(OCc3cnn(-c4ccccc4)c3)cc2O)c1Oc1ccc(Cl)cc1	·	-8	7	2	-8	10	-12	i
Cc1cc(Cl)c(S(=O)(=O)N2CC(C)OC(C)C2)cc1OCC(N)=O (stereo not drawn)	-7	-8	-3	2	-1	-13	-4	i
COCCN1C(=O)c2ccccc2C(C(=O)NCCCN2CCCC2=O)C1c1c[nH]c2ccccc12 (stereo not drawn)	·	·	7	-1	-1	-2	-9	·
COc1ccc(Cl)cc1NC(=O)c1noc(C)c1[N+](=O)[O-]	·	22	-6	-1	4	14	0	i
CC1CC(C(F)(F)F)n2ncnc2N1 (stereo not drawn)	·	1	7	0	6	8	7	i
O=C1NC(=O)N(Cc2ccccc2F)C1=O	-13	-6	-7	0	2	-11	-4	i
COc1ccccc1Oc1ccc(-c2cnc3ccccc3n2)cc1[N+](=O)[O-]	-6	4	2	-3	-13	0	8	i
Cc1cc(N2CCOCC2)n2nc(C)c(-c3ccccc3)c2n1	·	-9	-8	4	7	64	-14	·	eIF4H inh retest=-2;PABP polyA inh retest=0
CN(C)C(=O)CCc1ccc2c3c([nH]c2c1)[C@]1(CCc2ccccc2)[C@@H](C(=O)N2CCCCC2)C[C@H](CC(=O)NC(C)(C)C)C(=O)N1CC3	-201	·	·	-4	-1	·	16	·
O=C(OCc1nc2ccccc2[n+]([O-])c1C(=O)c1ccccc1)c1ccco1	-7	-6	-5	-3	-2	0	·	i
C(=N\Nc1nc(-c2ccccc2)cs1)/c1cccnc1	-90	-7	8	3	-5	0	1	i
CN(Cc1ccc(F)cc1)C(=O)c1ccc2c(c1)NC(=O)CS2	-10	-4	-1	5	-2	-4	-6	i
CC(C)[C@H](NS(=O)(=O)c1ccccc1)C(=O)OCC(=O)NC(=O)NC1CCCCC1	-18	-19	·	1	-3	·	5	·
O=C(CSc1ccccn1)N1CCOCC1	-11	-27	-12	7	5	-6	-15	i
CCOc1ccc(NC(=O)c2ccccc2OC)cc1	-171	-12	-5	1	-2	-4	-9	i
CCCOC(=O)Nc1cc(OC)ccc1[N+](=O)[O-]	-17	7	5	-7	-3	-8	·	i
Cc1ccc(NC(=O)C2CCN(S(=O)(=O)c3c(C)n[nH]c3C)CC2)nc1	·	-6	-8	3	-4	-3	-13	i
Cc1ccc(NCc2nnc(SCC(=O)N3CCCc4ccccc43)o2)c(C)c1	21	-2	6	-7	3	-7	-40	·
Cc1c(NC(=O)CN2C(=O)C(=O)c3ccccc32)c(=O)n(-c2ccccc2)n1C	8	-14	-8	2	5	3	·	i
C=CCn1c(SCC(=O)Nc2ccc(N3CCOCC3)cc2)nnc1-c1ccncc1	-10	0	2	1	4	9	-2	·
O=c1[nH]c2cc3c(cc2cc1CN(CC1CCCO1)S(=O)(=O)c1ccccc1)OCCO3 (stereo not drawn)	·	-3	5	-6	1	-11	·	i
CCOC(=O)C1C(=O)NC(N2CCCCC2)=NC1c1ccccc1 (stereo not drawn)	6	-7	-6	6	10	-9	-3	i
O=C(NCC(=O)N1CCCC1)c1ccc(Cl)cc1	-11	-14	-2	-1	0	-5	-11	i

The closing two records of the part before open the next one.
SMILES	HIV Env fusion	CSC inhib	eIF4H inh	MT1-MMP act inh	MT1-MMP act inh RFP	PABP polyA inh	Yeast UUG start	Rce1 inh	others
CCOC(=O)C1C(=O)NC(N2CCCCC2)=NC1c1ccccc1 (stereo not drawn)	6	-7	-6	6	10	-9	-3	i
O=C(NCC(=O)N1CCCC1)c1ccc(Cl)cc1	-11	-14	-2	-1	0	-5	-11	i
Cc1ccc(S(=O)(=O)NNC(=O)c2cccnc2)cc1	14	-2	8	0	1	16	-16	·
O=C(CSc1ccc(-c2ccccn2)nn1)N1CCCc2ccccc21	-2	-3	2	10	1	-4	-12	i
Cc1ccsc1C1Nc2ccc3ncccc3c2C2=C1C(=O)CCC2 (stereo not drawn)	23	-14	1	2	4	-7	-8	i
O=C(COC(=O)CSc1ccc(F)cc1)NCCCc1ccccc1	-11	12	·	-1	6	·	·	i
Cc1ccc(-c2nc(NC(=O)c3ccc(S(=O)(=O)N(CCC#N)CCC#N)cc3)sc2-c2ccccc2)cc1	12	9	3	-3	-9	0	-10	i
CC1CCC(=C(C#N)C(=O)Nc2cccc(Cl)c2)CC1 (stereo not drawn)	·	7	3	3	-1	-7	-10	i
Cc1ccc(-c2nnn(CC(=O)N(c3cccc(F)c3)C(C(=O)NC(C)(C)C)c3ccco3)n2)o1 (stereo not drawn)	15	-11	-7	0	2	-3	-19	i
C=CCNS(=O)(=O)CC12CCC(CC1=O)C2(C)C (stereo not drawn)	-9	-7	6	0	0	4	-4	i
CN1CCN(c2ccc(Cl)cc2NC(=O)C2COc3ccccc3O2)CC1 (stereo not drawn)	-53	·	-4	-13	-9	-7	4	i
CCCn1c(C2CCCN2c2nc(-c3cccc(Br)c3)cs2)nc2cc(Cl)c(Cl)cc21 (stereo not drawn)	·	6	-16	-1	-3	-10	-4	i
Cc1cccc(NC(=O)CSCC(=O)Nc2cc(S(=O)(=O)N3CCOCC3)ccc2OC(C)C)c1	·	-7	·	-3	0	·	-5	i
CNC1=CC(=O)CC(c2ccccc2)C1 (stereo not drawn)	8	12	-4	0	3	-10	·	i
O=C(Nc1c[nH]c(=O)[nH]c1=O)c1ccccc1Br	17	-20	7	2	3	-2	-6	i
COc1nccnc1NS(=O)(=O)c1ccc(NC(=S)NC(=O)c2ccc(F)cc2)cc1	10	-8	-4	-4	2	13	-11	i
CCOC(=O)Cn1cnc2c(cnn2-c2ccc(OC)cc2)c1=O	-48	-16	-2	-7	-5	4	-5	i
O=C(/C=C/c1ccc(F)cc1)N1CCCc2ccccc21	-3	-4	-2	-2	2	16	·	i
Cc1ccc(S(=O)(=O)N2CCOCC2)cc1NC(=O)CSc1ccc(Cl)cc1	8	-1	·	-2	-4	·	-1	i
CC(C)(C)C(=O)Nc1ccnn1C1CCN(C(=O)c2cccc(Cl)c2)CC1	·	-3	6	-2	3	1	13	i

Source: PubChem BioAssay
